Beta apoptosis: inhibitors of cytokine-induced beta cell apoptosis, primary screen, luminescence; INS-1E cytokine-induced death, ATP luminescence, 48 h; percent of positive-control rescue, neutral wells zero; protection from apoptosis, % (concentration not given with the values); actives 0.8% (n = 300,000); AID 435005, 2010;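 active means all replicates at 75% or more, or half of them and the mean; inconclusive means half reach 75% but not the mean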;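 further: 0% = cytokine-treated negative control wells and 100% = positive control rescue; higher means more ATP so stronger rescue from cytokine killing; wells of about 40 µL received 100 nL stock; the first replicate is given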
A1 inh: caspase 3/7 activation in MEF A1-2A-BIM cells, primary screen, A1 inhibitor project, cell-based, luminescence, HTS | actives 0.066% (n = 330,000) | Caspase-Glo 3/7 luminescence, 3 h; percent of clofoctol response, vehicle zero | caspase activation, % (no concentration beside the values);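 active means over half of replicate activation scores above 10%, or exactly half above 10 with the replicate mean above 10; inconclusive means replicate mean below 10 yet half the replicates above 10; inactive means over half of replicates below 10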;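 further: wells of about 30 µL received 50 nL stock; many hits fall short of the cut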
RanGTP-Imp inh: inhibitors of RanGTP-importin-beta interaction, primary screen, biochemical, FRET, CFP-Ran, YFP-importin-beta, homogeneous; Ran GTPase (GTP-bound) - importin-beta complex; cell-free CFP-Ran/YFP-importin-beta FRET ratio; inhibition, % (no concentration beside the values); actives 1.1% (n = 300,000); AID 2216, 2009;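 active means most replicates above 15%; inconclusive means exactly half above 15%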;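 further: 0% = DMSO wells and 100% = Ran loaded with GDP instead of GTP; wells of about 40 µL received 100 nL stock; the first replicate is given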
Calb FLC: C. albicans growth inhibition with fluconazole, primary screen, CaCi-2 strain, Alamar Blue fluorescence | C. albicans CaCi-2 (fluconazole-resistant clinical isolate) + fluconazole, 48 h | growth inhibition, % (test concentration not listed) | actives 0.57% (n = 300,000);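 active means most replicates above 75%; inconclusive means exactly half above 75%; inactive means most below 75%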;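 further: all wells also contain fluconazole at 8 µg/ml as a sub-toxic cotreatment; 0% = median of DMSO wells and 100% = median of geldanamycin control wells; wells of about 8 µL received 7.5 nL stock; the first replicate is given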
Vif A3G: inhibitors of Vif binding to APOBEC3G peptide, primary screen, biochemical, TR-FRET, GST-Vif 1-94, biotin-A3G peptide, dose response retest (AID 1117319) | TR-FRET GST-Vif / biotin-A3G peptide binding; higher % means a stronger effect; test concentration not given here; strong numbers were not always called active | one-dose inhibition, %; IC50 in µM for titrated hits | actives 0.57% (n = 260,000);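 active means above the screen mean plus three standard deviations and confirmed in dose response; inconclusive means results disagree or hit not tested in dose response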;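 further: Vif residues 1-94 fused to GST binding biotinylated APOBEC3G peptide 110-148; 0% = full assay without inhibitor and 100% = GST in place of GST-Vif; retest series ran down from 100 µM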
MLL AF4-AF9 inh: inhibitors of AF4 peptide binding to AF9, primary screen, biochemical, AlphaScreen, biotin-AF4 peptide, FLAG-AF9, single point. Protein AF-9 (Homo sapiens), P42568. inhibition, % at 10 µM. actives 0.47% (n = 350,000). AID 651704, 2012;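 active means every replicate reaching a set inhibition limit, whatever the replicate mean, cut at about 25% in these data; inconclusive means mean inhibition reaches that limit but some replicates miss it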;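 further: 0% = plate neutral control median and 100% = total signal loss; the record names both 10 and 1 µM as test concentration; the first replicate is given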
Target sequence (P42568 whole entry, looked up): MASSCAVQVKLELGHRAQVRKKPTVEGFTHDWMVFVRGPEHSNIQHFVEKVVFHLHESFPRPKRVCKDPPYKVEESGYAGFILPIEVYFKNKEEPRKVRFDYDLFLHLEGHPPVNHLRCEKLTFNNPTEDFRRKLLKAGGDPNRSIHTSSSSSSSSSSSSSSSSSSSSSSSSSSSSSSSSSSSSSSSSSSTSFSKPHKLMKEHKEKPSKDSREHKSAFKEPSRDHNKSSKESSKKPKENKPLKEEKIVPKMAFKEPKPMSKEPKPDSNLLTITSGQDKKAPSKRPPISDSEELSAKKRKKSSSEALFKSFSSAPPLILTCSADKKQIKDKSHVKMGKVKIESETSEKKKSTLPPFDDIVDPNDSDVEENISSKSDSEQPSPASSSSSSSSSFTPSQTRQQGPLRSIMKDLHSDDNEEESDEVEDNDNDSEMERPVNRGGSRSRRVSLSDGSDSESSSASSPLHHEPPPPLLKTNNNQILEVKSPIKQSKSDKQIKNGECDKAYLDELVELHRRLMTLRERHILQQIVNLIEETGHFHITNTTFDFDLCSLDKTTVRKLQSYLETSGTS
T cruzi repl: inhibitors of intracellular T. cruzi growth, primary screen, luminescence, NIH3T3 host cells | T. cruzi beta-gal in NIH3T3, 90 h | inhibition, % (no concentration beside the values) | actives 1.4% (n = 300,000);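 active means mean inhibition across valid replicates above about 55%, limit read from the data; inconclusive means mean below that limit but half or more replicates reach it; inactive means mean below it, under half of replicates reach it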;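 further: signal also drops with host cell toxicity which is not excluded here; 0% = plate median of DMSO wells and 100% = zero luminescence signal; higher percent means less beta-gal luminescence so fewer parasites; stock transfer was 50 nL into about 50 µL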
rRNA inh HTS: reduced GFP signal of wild-type E. coli, primary screen, bacterial rRNA inhibitor project, GFP/RFP fluorescence, OD600, single point; E. coli WT GFP vs humanized-ribosome RFP mutants, 24 h; active compounds read low; DMSO median 0, no signal -100; GFP signal change (wild-type ribosome), % (no concentration beside the values); actives 1.6% (n = 350,000); AID 720706, 2013;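 active means significant combined selectivity score with lowered wild-type GFP, culture density cut under 30%, mutant RFP and density less affected; inactive means any of these conditions unmet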; further: one replicate is shown; some compounds called inactive have numbers as strong as hits
rRNA inh HTS OD600: recorded beside rRNA inh HTS, whose call it bears; OD600 change, %; measured here: OD600 growth;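 optical density of the mix in the first replicate; 0 = DMSO median and -100 = no signal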
rRNA inh HTS RFP: recorded beside rRNA inh HTS, whose call it bears; RFP signal change, %; measured here: RFP humanized mutant strains;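 first replicate; 0 = DMSO median and -100 = no signal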
The depositor's hits bear a star; ? = inconclusive; . = no result given. These rows are one share of the data; count on the stated rates, not on these rows.

Structure	Beta apoptosis	A1 inh	RanGTP-Imp inh	Calb FLC	Vif A3G	MLL AF4-AF9 inh	T cruzi repl	rRNA inh HTS	rRNA inh HTS OD600	rRNA inh HTS RFP
CCOC(=O)CSc1cc(C)nc2ccc(OC)cc12	-6.3	0.4	-2.3	19.8	7.2%	1.9	10.8	4.1	0.4	2.7
COc1ccc(CNC(=O)CN2C(=O)NC3(CCCCCCC3)C2=O)cc1	-2.6	-0.6	.	.	-5.7%	0.9	.	-3.8	-7.4	-3.0
c1ccc(N2CCN(c3nc(-c4cccs4)nc4ccccc34)CC2)cc1	2.0	-0.3	-2.6	-10.5	-13.2%	3.5	28.6	.	.	.
CCNc1nc(Cl)nc(N(NC(C)=O)C(C)CC)n1 (stereo not given)	-0.5	0.2	6.4	-4.0	3.0%	.	-0.7	.	.	.
OC(CC1CC12c1ccccc1-c1ncccc12)(c1ccccc1)c1ccccc1 (stereo not given)	-5.9	-0.4	-0.5	37.1	-8.7%	.	36.7	.	.	.
O=C(NCCC1=CCCCC1)c1coc(=O)c(Br)c1	5.8	-0.2	-1.4	5.4	-49.1%	.	-9.2	.	.	.
COc1ccccc1CNC(=O)Cn1c(=O)oc2cc(Cl)ccc21	-2.1	-0.6	0.9	-0.1	-0.4%	-0.5	-2.9	5.6	6.1	-6.2
CCOc1ccc(CC(=O)Nc2cc(=O)n(C)c(=O)n2C)cc1	0.0	0.8	3.1	-54.8	10.8%	-1.8	-1.0	9.1	0.7	1.1
C=CCn1c(SCC(=O)Nc2cccc3ccccc23)nc(O)c(CC)c1=O	-6.9	-0.1	0.7	11.3	5.5%	.	-3.1	.	.	.
O=C(NNc1cccc(Cl)n1)c1c(F)cccc1F	-0.4	1.3	0.6	-3.8	-0.7%	0.8	-13.9	2.3	1.7	-0.4
COC(=O)[C@@]12CCCCN1[C@H](c1ccc(-c3cc(C(C)=O)cs3)c(OC)c1)[C@H]1C(=O)N(C)C(=O)[C@H]12	11.2	0.1	.	.	.	-4.1	.	10.8	5.3	0.2
C=CCC1(CC=C)CCCN1C(=O)CC1C(=O)NCCN1Cc1ccccc1OC (stereo not given)	-6.7	1.8	-6.8	-12.7	5.9%	1.6	13.3	-22.1	-25.3	-1.3
COc1ccc(C(C)=O)cc1COC(=O)c1ccc(C)c(S(=O)(=O)N2CCOCC2)c1	-6.6	0.8	.	.	-1.1%	1.7	.	.	.	.
COc1ccc(-c2nnc(SC(=O)N3c4ccccc4Sc4ccccc43)o2)cc1	-7.5	-0.2	-6.0	-4.5	13.3%	.	20.7	.	.	.
CCCCCCN1C=CC(=C2C(=O)c3ccccc3C2=O)C=C1	18.3	-8.5	1.6	30.0	17.5%	1.1	19.1	-3.9	8.8	-0.1

(more compounds)
Structure	Beta apoptosis	A1 inh	RanGTP-Imp inh	Calb FLC	Vif A3G	MLL AF4-AF9 inh	T cruzi repl	rRNA inh HTS	rRNA inh HTS OD600	rRNA inh HTS RFP
CCc1nnc(NC(=O)c2cccc(S(=O)(=O)N(C)c3ccc(OC)cc3)c2)s1	3.3	1.2	2.8	1.5	4.8%	-3.0	23.2	5.2	7.0	1.6
CCOC(=O)CCNC(=O)CCc1nnc(CCCc2ccccc2)o1	3.9	-0.8	1.2	-1.0	.	-2.2	-9.0	-5.8	-4.0	-2.3
O=C1c2ccccc2C(=O)N1Cc1nc(-c2ccncc2)no1	0.7	0.1	-0.7	-16.8	2.7%	2.4	-6.9	40.8	6.8	-0.9
COCCNC(=O)[C@@H]1CCCN1C(=O)C1CCN(S(=O)(=O)c2ccc(C)cc2)CC1	-1.7	0.8	-1.9	.	.	0.1	-12.7	9.8	11.8	3.8
CSc1ccccc1NC(=O)c1cc(S(=O)(=O)N(C)C)ccc1N1CCCC1	-5.3	-1.3	2.0	?	.	14.6	15.8	0.1	0.0	-1.6
Cc1csc(NC(=O)c2ccc3c(=O)n4c(nc3c2)CCCCC4)n1	5.2	0.3	?	1.5	.	0.0	-8.2	-28.4	-32.2	-6.5
CC(C)CCNC(=O)NC(=O)COC(=O)/C=C/c1cnc2ccccc2n1	-15.7	-0.9	0.1	-1.4	-17.6%	.	-6.2	.	.	.
COc1cc(C#Cc2ccc3cc(CCO)oc(=O)c3c2)cc(OC)c1	1.8	-7.4	.	.	.	-5.6	.	-0.2	9.1	-6.4
O=C(CC(Cc1ccccc1)c1ccco1)NCc1ccco1 (stereo not given)	-2.2	-0.4	-0.1	4.2	.	5.2	0.3	0.3	2.0	0.7
O=C(CC(c1ccccc1)c1ccccc1)N1CCN(c2ccccn2)CC1	6.9	2.2	5.1	17.3	-6.8%	0.5	6.8	-14.2	-13.3	-1.2
O=C(Nc1ccc(Cl)c(S(=O)(=O)N2CCOCC2)c1)c1n[nH]c(=O)c2ccccc12	-2.7	-1.7	.	.	-4.2%	0.6	.	1.3	3.7	-0.7
COc1ccc(C(O)(C2CCCCC2)C(CN2CCOCC2)c2ccccc2)cc1 (stereo not given)	2.4	-0.6	2.9	1.6	5.9%	13.4	17.5	-33.1	-31.5	-1.1
FC(F)(F)c1cccc(NC(=S)NCC(c2cccnc2)N2CCOCC2)c1 (stereo not given)	-0.6	-1.3	-2.6	7.5	.	6.7	44.7	2.6	-6.1	-5.3
CCOC(=O)N1CCN(C(=O)c2cc(COc3cccc(C(C)=O)c3)on2)CC1	.	1.6	?	3.7	0.2%	-1.6	-1.6	-2.9	6.4	3.2
O=C(NCCCN1CCCC1=O)c1cc2c(s1)CCCCC2	3.2	-0.6	3.4	7.4	.	-48.4	-2.2	-0.1	-1.5	-1.3

Limited to MLL AF4-AF9 inh (2 entries from above):
SMILES | MLL AF4-AF9 inh
FC(F)(F)c1cccc(NC(=S)NCC(c2cccnc2)N2CCOCC2)c1 (stereo not given) | 6.7
CCOC(=O)N1CCN(C(=O)c2cc(COc3cccc(C(C)=O)c3)on2)CC1 | -1.6

Next section:
Structure	Beta apoptosis	A1 inh	RanGTP-Imp inh	Calb FLC	Vif A3G	MLL AF4-AF9 inh	T cruzi repl	rRNA inh HTS	rRNA inh HTS OD600	rRNA inh HTS RFP
COc1ccc(NC(=O)CSCC(=O)N(C)CCOc2ccc(Cl)cc2)cc1	-3.4	1.0	5.1	-2.0	-5.4%	-0.8	1.7	-20.1	-20.0	1.1
Cn1c(=O)c2c(nc(CN3CCN(c4ccccc4F)CC3)n2CCCc2ccccc2)n(C)c1=O	-0.8	-0.8	0.6	-8.2	.	.	25.2	.	.	.
CCC(=O)Nc1ccccc1C(=O)N1CCN(Cc2ccccc2)CC1	2.3	-0.2	1.4	-1.6	4.0%	.	2.7	.	.	.
CCOC(=O)c1ccccc1NC(=O)CSc1nc2ccncc2[nH]1	-3.7	1.2	0.0	-4.9	0.0%	1.4	-2.5	-5.6	-14.9	1.9
COc1ccc2nc(C)cc(SCC(=O)N/N=C/c3ccc(O)c(O)c3)c2c1	-1.2	2.1	5.6	-1.5	.	4.1	-12.0	-22.9	-21.5	-4.0
COC(=O)c1cc2sc(Cl)cc2n1CC(=O)Nc1ccc(OC)c(OC)c1OC	0.2	-0.5	3.2	0.5	-5.9%	.	2.8	.	.	.
O=C(CSc1nnc(-c2ccc(F)cc2)c2ccccc12)Nc1ccccc1	-7.6	-2.9	-3.1	-4.7	-5.4%	4.0	27.8	4.9	6.7	0.4
CC1CC(C)(C)NCCNC(C)CC(C)(C)NCCN1 (stereo not given)	-3.4	-1.3	0.4	-9.6	13.5%	.	-17.3	.	.	.
CCOC(=O)c1ccc(N2C(=O)CC(C3CCCO3)C2=O)cc1 (stereo not given)	-2.9	0.7	-0.1	6.0	-1.0%	.	-18.1	.	.	.
CCOC(=O)CC1C(=O)NCCN1S(=O)(=O)c1ccc(C)cc1 (stereo not given)	-2.7	0.5	4.2	1.1	6.4%	0.0	-12.3	25.9	14.2	0.5
Nc1c(S(=O)(=O)c2cccc(Cl)c2)c2nc3ccccc3nc2n1CCN1CCOCC1	-9.9	0.6	12.0	10.3	-4.5%	.	33.2	.	.	.
Cc1nn(Cc2ccccc2)c(C)c1C(=O)N1CCN(CC(=O)Nc2ccc(F)cc2)CC1	0.9	2.0	.	.	.	-0.4	.	0.8	7.5	-1.6
Cc1ccc(N(CC(=O)NCC2CCCO2)S(C)(=O)=O)cc1Cl (stereo not given)	.	-0.2	2.1	-5.8	-0.8%	.	-7.3	.	.	.
O=C(NC(=S)Nc1ccc(Cc2ccncc2)cc1)c1ccccc1Cl	0.4	0.0	-1.0	-1.2	.	.	50.2	.	.	.
CCCCn1c(NC(=S)Nc2ccccc2)nc2ccccc21	50.8	-0.4	-0.2	31.0	.	.	49.8	.	.	.

The list continues:
Structure	Beta apoptosis	A1 inh	RanGTP-Imp inh	Calb FLC	Vif A3G	MLL AF4-AF9 inh	T cruzi repl	rRNA inh HTS	rRNA inh HTS OD600	rRNA inh HTS RFP
CS(=O)(=O)c1ccc(C(=O)N2CCN(Cc3ccccc3)CC2)cc1	1.3	-1.9	?	-10.7	.	0.9	-4.3	17.9	13.9	-0.5
COC(=O)C1=C(N)Oc2cc(C)n(CC3CCCO3)c(=O)c2C1c1ccccc1 (stereo not given)	-5.6	0.0	9.2	-4.6	-1.3%	.	11.6	.	.	.
O=C(N/N=C/c1cccc([N+](=O)[O-])c1)c1cccc2cc[nH]c12	0.9	-0.7	-1.0	28.0	-4.3%	-1.3	-10.5	21.7	6.4	-0.4
Cc1cc(OCc2cccc(S(=O)(=O)N3CCOCC3)c2)ccc1Cl	4.5	-1.0	.	.	-11.7%	-1.4	.	-18.3	-22.2	-8.0
O=C(Nc1nccs1)c1cn2ccccc2n1	2.7	-11.2	6.0	-1.9	.	2.2	-11.0	18.9	11.4	3.5
Cc1nc2ccccc2n1C(=O)c1ccccc1[N+](=O)[O-]	-7.7	0.7	-0.7	-8.9	.	5.3	-19.3	4.2	-1.7	-1.6
CCCN1C2CCCC1CC(NC(=O)c1ccccc1Br)C2 (stereo not given)	.	0.6	?	-0.3	-0.9%	-5.0	11.7	11.3	11.2	-1.9
Cc1ccc(S(=O)(=O)N2CCCCC2)cc1NC(=O)CSc1ncn[nH]1	1.8	0.5	-0.1	3.4	7.4%	1.3	-1.2	-4.9	-5.2	5.3
O=C(COC(=O)CCC1CCCC1)Nc1cccc(S(=O)(=O)N2CCOCC2)c1	0.0	0.6	3.4	-2.0	6.7%	0.7	-7.1	2.8	5.9	0.5
C/C(=N\N=C1\NC(=O)CS1)c1cccs1	-3.7	0.2	0.7	-1.6	?	-3.0	-5.3	3.1	3.4	0.4

Bioassay records: PubChem BioAssay, several laboratories
